KCNQ2 block – KCNQ2 channel blockers in CHO-K1 cells – cell-based, FluxOR thallium flux, B-score, primary screen (AID 2156); O88943; 20 min; hits give low values; only compounds with negative scores are shown here; some inactives read as strong as hits; hit rate 1.1% among 310,000; B-score at 10 µM;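 active = fluorescence ratio B-score at most minus 3 library SDs, with starting brightness B-score within 2 library SDs, cut at about -5.5 in these data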
Target sequence (O88943 whole entry, looked up): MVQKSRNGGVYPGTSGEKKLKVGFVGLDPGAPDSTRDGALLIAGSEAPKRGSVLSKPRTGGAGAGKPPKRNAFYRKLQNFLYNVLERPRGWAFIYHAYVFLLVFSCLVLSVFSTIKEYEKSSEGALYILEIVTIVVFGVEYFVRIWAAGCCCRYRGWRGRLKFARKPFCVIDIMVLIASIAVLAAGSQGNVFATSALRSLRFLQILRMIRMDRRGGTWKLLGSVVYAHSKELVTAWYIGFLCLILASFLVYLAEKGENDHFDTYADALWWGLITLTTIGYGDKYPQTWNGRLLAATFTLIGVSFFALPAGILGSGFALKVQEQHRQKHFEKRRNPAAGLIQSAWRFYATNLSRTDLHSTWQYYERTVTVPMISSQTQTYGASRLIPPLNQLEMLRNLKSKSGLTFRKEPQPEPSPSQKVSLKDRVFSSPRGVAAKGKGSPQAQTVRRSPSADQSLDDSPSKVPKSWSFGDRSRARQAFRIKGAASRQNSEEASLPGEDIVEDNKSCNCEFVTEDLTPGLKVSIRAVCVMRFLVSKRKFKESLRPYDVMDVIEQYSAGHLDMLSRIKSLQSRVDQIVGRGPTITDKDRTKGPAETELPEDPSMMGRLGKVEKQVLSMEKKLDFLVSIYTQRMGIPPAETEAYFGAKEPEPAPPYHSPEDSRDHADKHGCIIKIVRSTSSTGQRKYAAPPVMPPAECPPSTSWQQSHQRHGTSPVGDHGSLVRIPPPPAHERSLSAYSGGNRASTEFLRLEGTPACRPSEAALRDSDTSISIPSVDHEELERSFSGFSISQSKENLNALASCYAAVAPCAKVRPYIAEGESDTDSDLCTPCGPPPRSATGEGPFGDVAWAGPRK
KCNQ2 block baseline – also measured in KCNQ2 block; calls as there; B-score; measured here: initial fluorescence intensity artifact check;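 brightness before thallium and not channel activity; 0 = typical well and far values either way flag optical interference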
Active calls of the source: *; i = inactive. This is a subset; the hit share may differ from the screen's.

Every second line gives: KCNQ2 block, KCNQ2 block baseline
1) O=C(CN1CCN(C(=O)c2ccco2)CC1)NCc1ccc(Cl)cc1
  i, -0.01
2) Cc1ccc(NC(=O)COC(=O)CNC(=O)c2ccc(Br)cc2)c(C)c1
  i, -0.06
3) CC(=O)C1=C(C)NC2(O)c3ccccc3C(=O)C12O (stereo not drawn)
  i, 1.28
4) CC(C)c1c(O)nc(SCc2ccc(F)cc2)[nH]c1=O
  i, -0.68
5) O=C(O)CSc1nnc(COc2cccc3ccccc23)n1Cc1ccccc1
  i, -0.51
6) CCOc1ccc2[nH]c(C(=O)N/N=C/c3cccc(OC)c3OC)cc2c1
  i, -1.09
7) COC(=O)NCCOc1cc(C)ccc1C
  i, 1.07
8) COc1ccc(/C=C(/NC(=O)c2ccccc2)C(=O)Nc2cccc(C(=O)O)c2)cc1
  i, -1.25
9) O=C(O)c1ccc(/C=N/NC(=S)NC2CCCCC2)cc1
  i, 0.33
10) C=CCn1c(COc2ccc(OC)cc2)nc2ccccc21
  i, 0.08
11) COc1ccc(C(=O)N2CCN(Cc3ccccc3C(F)(F)F)CC2)cc1
  i, 0.71
12) Cc1nc(C)c(-c2csc(Nc3ccc(F)cc3)n2)s1
  i, -1.11
13) COC(=O)C1=C(C)N(c2ccc(C)c(C)c2)/C(=C/c2ccc(O)cc2)C1=O
  i, 1.68
14) CS(=O)(=O)N1CCN(CC(=O)NC2CCCCC2)CC1
  i, -1.07
15) O=C(Nc1cccc2cccnc12)c1cccc([N+](=O)[O-])c1
  i, -0.77
16) O=C(CC(=O)c1ccccc1)Nc1ccccc1C(F)(F)F
  i, 0.55
17) O=C(N[C@@H](Cc1c[nH]c2ccccc12)C(=O)O)C1CCN(S(=O)(=O)c2cccs2)CC1
  i, 1.4
18) Cc1cc(C(=O)O)c(C)n1-c1ccccc1
  i, 0.18
19) CN1CCN(C(=O)/C=C/c2cn(-c3ccccc3)nc2-c2ccc3c(c2)OCCO3)CC1
  i, 0.47
20) COc1ccc(C)cc1S(=O)(=O)n1c([N+](=O)[O-])cnc1C
  i, -1.84
21) O=C(/C=C(\c1ccccc1)n1cncn1)c1ccccc1
  i, -0.48
22) COCCNC(=O)/C(C#N)=C/c1ccc(O)c([N+](=O)[O-])c1
  i, 0.03
23) CCOc1ccccc1NC(=O)CSc1ccc(-c2ccco2)nn1
  i, 1.59
24) CC(=O)N1N=C(c2ccccc2)OC12CCCC2
  i, 0.14
25) Cc1ccc(-c2cc(C(=O)NCC3CCCO3)no2)cc1 (stereo not drawn)
  i, 0.68
26) O=C(CN1CCOCC1)N/N=C/c1ccco1
  i, 1.42
27) O=C1c2ccccc2C(=O)N1Cc1nc2ccccc2c(=O)n1CCN1CCOCC1
  i, -0.3
28) COc1ccc2c(c1)C(C)=CC(C)(C)N2S(=O)(=O)c1ccc(Br)cc1
  i, 0.96
29) CCc1ccc(OCC(=O)N(C)C2CCS(=O)(=O)C2)cc1 (stereo not drawn)
  i, 0.57
30) CN(CC(=O)Nc1ccccc1C(F)(F)F)C(=O)CCc1nc2ccccc2c(=O)[nH]1
  i, 1.87
31) Cn1ccnc1SCC(=O)c1ccc(OC(F)F)cc1
  i, 1.2
32) COc1ccc(N/C=C/C(=O)c2ccc(OC)c(OC)c2)cc1
  i, -0.11
33) CCOC(=O)CCNC(=O)Nc1cc2nc(C)n(Cc3cccc(Cl)c3)c2nc1C
  i, -0.09
34) CCOC(=O)c1c(-c2ccccc2)c(C(C)=O)c(=O)n(C)c1C
  i, -0.05
35) CC1CCCCC1NC(=O)CN1C(=O)c2cccc(N)c2C1=O (stereo not drawn)
  i, 1.99
36) O=C(O)CCCNS(=O)(=O)/C=C/c1ccccc1
  i, 0.95
37) Cn1c(=O)c2c(nc(Sc3ncccn3)n2Cc2ccccc2Cl)n(C)c1=O
  i, 0.33
38) COc1ccc(CCNC(=O)CO/N=C/c2cc3c(cc2Br)OCO3)cc1OC
  i, -1.34
39) CCCCCOc1cccc(C2C(C(=O)c3cccs3)=C(O)C(=O)N2CCN2CCOCC2)c1 (stereo not drawn)
  i, 1.25
40) CC1CCCC(C)N1CCNC(=O)Cn1nc(-c2ccccc2)ccc1=O (stereo not drawn)
  i, 0.97
41) COc1ccc(C(=O)/C=C/c2ccc(OC)c(Cn3nnc4ccccc43)c2)cc1
  i, 1.05
42) COc1ccc(CCNS(=O)(=O)c2ccc(Br)s2)cc1
  i, -0.43
43) CCO[C@H]1OC(C(=O)NCc2nc3ccccc3[nH]2)=C[C@@H](c2cn(C(C)=O)c3ccccc23)[C@@H]1CCCO
  i, -2.31
44) CS(=O)(=O)NCCCc1ccccc1
  i, -0.01
45) CCOCCCn1c(C)nc2c(c1=O)c1nc3ccccc3nc1n2-c1ccc2c(c1)OCCO2
  i, -1.02
46) CC(C)CN1C=C2C(=O)C(C)(OC(=O)C3CCCC3)C(=O)C=C2C=C1c1ccsc1 (stereo not drawn)
  i, -0.11
47) COCCNC(=O)CN(C(=O)CCC(=O)Nc1ccccn1)c1ccc(C)cc1C
  i, 0.49
48) CCOC(=O)C1CCCN(S(=O)(=O)c2ccc(Br)c(OC)c2)C1 (stereo not drawn)
  i, 0.62
49) O=C(Nc1nc2ccccc2s1)c1ccc(N2CCCCC2)c([N+](=O)[O-])c1
  i, -0.09
50) O=C(COC(=O)C1=COCCO1)Nc1ccccc1
  i, 0.29
51) Cc1c(CCOC(=O)CC23CC4CC(CC(C)(C4)C2)C3)sc[n+]1CC(=O)c1ccccc1
  -7.85*, -0.21*
52) COc1cc(/C(C)=N/NC(=O)C(O)(c2ccccc2)c2ccccc2)ccc1O
  i, -0.71
53) Cc1cccc2cc(COC(=O)c3ccco3)c(=O)[nH]c12
  i, -0.51
54) CN(C)c1ccc(C2CNC(c3ccc(Cl)c([N+](=O)[O-])c3)c3[nH]c4ccccc4c32)cc1 (stereo not drawn)
  i, -0.05
55) Cc1nc(NC(=O)/C=C/c2ccccc2)sc1C(=O)N1CCCCC1
  i, -0.76
56) COCc1cc(Sc2ccc(Br)cc2)nc(-c2ccccc2)n1
  i, -0.28
57) Nc1nc2nc[nH]c2c(=O)[nH]1
  i, -3.4
58) O=C(O)C1SCCN1S(=O)(=O)c1ccc2ccccc2c1 (stereo not drawn)
  i, -0.01
59) CC1=C(C(=O)NC2CC(C)(C)Cc3c2cnn3-c2ccc(C)cc2)OCCO1 (stereo not drawn)
  i, -0.31
60) Cn1c(=O)n(C)c2cc([N+](=O)[O-])c(N3CCN(CCO)CC3)cc21
  i, -0.46

More results
Every second line gives: KCNQ2 block, KCNQ2 block baseline
61) COc1ccc(CCN2C(=O)C3C4CC(C5C(C(N)=O)=NOC45)C3C2=O)cc1OC (stereo not drawn)
  i, 0.43
62) Cc1ccc(S(=O)(=O)Nc2cc(C)c(O)c(S(=O)(=O)c3ccc(C)cc3)c2)cc1
  i, 0.18
63) Cc1ccc(N=C2C(=O)Nc3c(C)cccc32)cc1
  i, 0.95
64) CCOC(=O)c1c(S(=O)(=O)N2CCN(c3ccc(F)cc3)CC2)c(C)n(C)c1C
  i, -0.59
65) Cc1c(Cl)cccc1N1C(=O)CC(NNC(=O)c2cccs2)C1=O (stereo not drawn)
  i, 1.57
66) COc1cc(NC(=O)C2=C(N3CCOCC3)/C(=C\c3ccc(Cl)cc3Cl)CC2)cc(OC)c1OC
  i, -0.44
67) O=c1[nH]cc(COCC(F)CCl)c(=O)[nH]1 (stereo not drawn)
  i, -0.03
68) Cn1c2c(c(=O)n(C)c1=O)NC1(N2)C(=O)Nc2ccccc21 (stereo not drawn)
  i, 2.03
69) COc1ccc(-c2nnn(CC(=O)N(Cc3ccco3)C(C(=O)NCC3CCCO3)c3ccco3)n2)cc1 (stereo not drawn)
  i, 0.81
70) COc1ccc(CNC(=O)CN(Cc2ccccc2)C(=O)c2csnn2)cc1
  i, -0.46
71) CCc1c(C(=O)NC(C)C2CCCO2)csc1C (stereo not drawn)
  i, -0.12
72) CCN(CC)CCCNC(=O)Cn1cnc2sc(C)c(S(=O)(=O)N3CCC(C)CC3)c2c1=O
  i, 0.03
73) COc1cccc(NC(=O)c2cc(-c3ccncc3)nc3c(C)cc(C)cc23)c1
  i, -1.33
74) CCOc1ccc(CNc2ccc(N3CCN(Cc4ccccc4)CC3)cc2)cc1
  i, -0.66
75) Cn1cnc([N+](=O)[O-])c1Sc1ccc(C(C)(C)C)cc1
  i, -0.78
76) O=C(NCc1ccc2c(c1)OCO2)c1ccc2c(=O)n(C3CCCC3)c(=O)[nH]c2c1
  i, 1.39
77) CCN(CC)CCOC(=O)c1ccc(N/C=C(/C#N)c2nc(-c3ccc(OC)cc3)cs2)cc1
  i, -0.52
78) O=C(NC1CCOc2ccccc21)c1ccc(=O)[nH]c1 (stereo not drawn)
  i, -1.01
79) CC(=O)C1=C(C)N(Cc2ccccc2)C(=O)N[C@H]1c1cccs1
  i, 0.26
80) N/C(=N\OC(=O)c1ccccc1Cl)c1ccccc1
  i, -0.55
81) COC(=O)c1cc(OC(=O)c2ccc(=O)[nH]c2)cc(C(=O)OC)c1
  i, -1.09
82) O=S(=O)(Nc1ccncc1Cl)c1cccc(Cl)c1Cl
  i, 3.06
83) CC(O)[C@H]1CNC(=O)C(=O)N1CCc1cc(C(F)(F)F)cc(C(F)(F)F)c1 (stereo partly drawn)
  i, 1.05
84) O=C(CCCCCNc1nc(=S)[nH]c2ccccc12)N1CCN(c2ccccn2)CC1
  i, -0.01
85) Cc1cccc(N(CC(=O)NC2CCCCC2)C(=O)CCC(=O)Nc2nccs2)c1
  i, 0.37
86) COc1ccc(S(=O)(=O)N2CCOC2CNC(=O)C(=O)NCCc2ccc(S(N)(=O)=O)cc2)cc1 (stereo not drawn)
  i, 0.68
87) COC(=O)c1ccc2c(c1)C(=O)/C(=C/c1ccc(C)cc1)O2
  i, 1.26
88) COc1cc([N+](=O)[O-])cc(/C=N/NC(=O)c2ccc(C)nc2)c1O
  i, 0.04
89) COc1cc(OC)nc(Oc2ccccc2C(=O)Oc2cccc(C)c2)n1
  i, 0.52
90) Cc1ccc(C)c(NC(=O)C2CC(O)CN2C(=O)OCc2ccccc2)c1 (stereo not drawn)
  i, -0.1
91) CCCC(=O)N(CCN1CCOCC1)c1nc2c(C)ccc(C)c2s1
  i, 1.15
92) CCOC(=O)N1CCN(c2c(NCCCOC(C)C)c(=O)c2=O)CC1
  i, -1.59
93) Cc1cccc(Oc2cnn(C(C)(C)C)c(=O)c2Cl)c1
  i, -0.52
94) COc1ccc(N2CCN(C(=O)CCN3C(=O)C4C5C=CC(C5)C4C3=O)CC2)cc1 (stereo not drawn)
  i, 0.55
95) CCN1CCc2c(OCc3ccc(C)cc3)cccc2C1=O
  i, 0.23
96) O=C(NCc1ccc2c(c1)OCO2)C1CCN(S(=O)(=O)c2ccc(F)cc2)CC1
  i, -0.54
97) COc1ccc(OCCNC(=O)C(c2ccccc2)c2ccccc2)cc1
  i, 0.54
98) COc1ccc(C(C)=O)cc1COC(=O)c1cc(C)oc1C
  i, -1.05
99) CCOCCCNC(=O)CN1C(=O)COc2ccc(S(=O)(=O)N3CCOCC3)cc21
  i, -0.19
100) O=C(Nc1ccc2nc3n(c(=O)c2c1)CCCCC3)c1ccccc1Cl
  i, -0.62
101) CC(=O)n1cc([C@@H]2C=C(C(=O)N3CCN(Cc4ccc5c(c4)OCO5)CC3)O[C@H](OCCCCO)C2)c2ccccc21
  i, -1.8
102) O=C(Nc1ccc(S(=O)(=O)N2CCOCC2)cc1)C1CC(=O)N(c2ccc(F)cc2)C1 (stereo not drawn)
  i, -0.4
103) FC(F)(F)c1cccc(-c2noc(CN3CCOCC3)n2)c1
  i, -1.25
104) CC1CCN(CC(CS(=O)(=O)c2ccc([N+](=O)[O-])cc2)N2CCC(C)CC2)CC1 (stereo not drawn)
  i, 2.35
105) Cc1nc(N/N=C/c2ccc(O)cc2)c2cnn(-c3ccccc3)c2n1
  i, -2.09
106) Cc1ccc(Cn2cnc3c(cnn3-c3ccc(F)cc3)c2=O)cc1
  i, 0.43
107) CCCCNS(=O)(=O)c1ccc2nc(SCC(=O)c3ccccc3OC)[nH]c2c1
  i, -0.01
108) Cc1cc(C)c(C(=O)CC(=O)c2ccccc2Cl)c(O)c1
  i, -1.24
109) Clc1ccc(-c2nnc(-c3ccccc3)o2)c(Cl)c1
  i, -1.46
110) COC(=O)c1ccc(C2C(Oc3ccccc3C)C(=O)N2CCc2ccc(OC)c(OC)c2)cc1 (stereo not drawn)
  i, -2.64
111) COC(=O)/C=C/CSC1=N/C(=C/c2ccc(-n3cncn3)cc2)C(=O)N1
  i, -0.28
112) CCC(Cc1ccccc1)NS(=O)(=O)c1csc(C(N)=O)c1 (stereo not drawn)
  i, 0.72
113) CC(CC(=O)O)CC(=O)Nc1nncs1 (stereo not drawn)
  i, 0.84
114) CCN(c1ccccc1)S(=O)(=O)c1ccc(C(=O)Nc2nnc(C3CC3)o2)cc1
  i, 0.27
115) COCCN1CCC(CNCc2c(C(=O)N3CCCCC3)nc3c(C)cccn23)C1 (stereo not drawn)
  i, -0.42

Five records picked at random from the list so far, as already listed:
Every second line gives: KCNQ2 block, KCNQ2 block baseline
110) COC(=O)c1ccc(C2C(Oc3ccccc3C)C(=O)N2CCc2ccc(OC)c(OC)c2)cc1 (stereo not drawn)
  i, -2.64
112) CCC(Cc1ccccc1)NS(=O)(=O)c1csc(C(N)=O)c1 (stereo not drawn)
  i, 0.72
106) Cc1ccc(Cn2cnc3c(cnn3-c3ccc(F)cc3)c2=O)cc1
  i, 0.43
103) FC(F)(F)c1cccc(-c2noc(CN3CCOCC3)n2)c1
  i, -1.25
108) Cc1cc(C)c(C(=O)CC(=O)c2ccccc2Cl)c(O)c1
  i, -1.24

Entries of single compounds, looked up by structure. Screens in order: KCNQ2 block | KCNQ2 block baseline
CCC(Cc1ccccc1)NS(=O)(=O)c1csc(C(N)=O)c1 (stereo not drawn) is listed as i | 0.72
Clc1ccc(-c2nnc(-c3ccccc3)o2)c(Cl)c1 is listed as i | -1.46
COC(=O)c1ccc(C2C(Oc3ccccc3C)C(=O)N2CCc2ccc(OC)c(OC)c2)cc1 (stereo not drawn) is listed as i | -2.64

Look-ups from the results shown:
no. 21 | KCNQ2 block baseline: -0.48
no. 104 | KCNQ2 block baseline: 2.35
no. 27 | KCNQ2 block baseline: -0.3
no. 5 | KCNQ2 block baseline: -0.51
no. 69 | KCNQ2 block baseline: 0.81
